Assay outcomes (PubChem BioAssay)
A1 apoptosis 2: blocks A1, raising caspase activity | MEF A1-2A-BIM cells, caspase-Glo luminescence, 3 h; percent of clofoctol response, DMSO zero | AID 2465 | caspase activation, % (no concentration beside the values) | 24,000 tested, under 10 active; in the data active = caspase activation above about 5.9%;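 note: wells of about 30 µL received 50 nL stock; the first replicate is given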
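Material: mouse embryonic fibroblasts co-expressing A1 and BIM (A1-2A-BIM), primed for A1 dependence / Quantity: 2500 cells/well / Buffer or medium: RPMI-1640 growth medium with 10% FBS / Doses: 50 nL compound per well, pinned / Schedule: 3 h compound exposure at 37 °C / Signal: Caspase-Glo luminescence (DEVD substrate) / Measure: Caspase-3/7 activation, seen as rise in luminescence signal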
An asterisk follows results filed as active. This is a subset. The share of hits here may be higher or lower than overall.

item | canonical_smiles | A1 apoptosis 2
1 | C[C@H]1CCCCO[C@H](CN(C)S(=O)(=O)c2ccccc2)[C@@H](C)CN([C@@H](C)CO)C(=O)c2cc(NC(=O)Cc3ccccc3)ccc2O1 | 0.6
2 | C[C@H](CO)N1C[C@H](C)[C@H](CN(C)S(=O)(=O)c2ccc(Cl)cc2)Oc2ccc(NC(=O)CCC(F)(F)F)cc2C1=O | -0.5
3 | Cc1ccc(S(=O)(=O)N(C)C[C@@H]2Oc3ccc(NC(=O)Nc4ccc(C(F)(F)F)cc4)cc3C(=O)N([C@@H](C)CO)C[C@H]2C)cc1 | 1.1
4 | Cc1ccc(S(=O)(=O)N(C)C[C@H]2Oc3ccc(NS(=O)(=O)c4c(C)noc4C)cc3CC(=O)N([C@H](C)CO)C[C@@H]2C)cc1 | 0.7
5 | C[C@H](CO)N1C[C@H](C)[C@@H](CN(C)Cc2ccc(C(=O)O)cc2)Oc2ccc(NC(=O)c3ccncc3)cc2C1=O | 0.3
6 | C[C@H]1CN([C@@H](C)CO)C(=O)CCCn2nncc2CO[C@H]1CN(C)C | -0.2
7 | C[C@@H]1CCCCO[C@@H](CN(C)Cc2ccncc2)[C@@H](C)CN([C@@H](C)CO)C(=O)c2cc(NC(=O)c3ccccc3)ccc2O1 | 0.2
8 | C[C@@H]1CCCCO[C@H](CN(C)S(=O)(=O)c2ccccc2)[C@@H](C)CN([C@H](C)CO)C(=O)c2cc(NC(=O)Nc3cccc4ccccc34)ccc2O1 | 1.6
9 | C[C@@H]1CCCCO[C@H](CN(C)CC2CCCCC2)[C@@H](C)CN([C@H](C)CO)C(=O)c2cc(NC(=O)c3ccccc3)ccc2O1 | 0.5
10 | C[C@H](CO)N1C[C@H](C)[C@H](CN(C)S(=O)(=O)c2ccccc2)Oc2ncc(C#CC(C)(C)O)cc2C1=O | -0.6
11 | CC(C)(C)OC(=O)NC/C=N/NC(=O)CCCCCCC(=O)Nc1ccccc1O | 0.8
12 | C[C@H]1CN([C@@H](C)CO)C(=O)c2cc(NC(=O)Cn3cnnn3)ccc2O[C@@H]1CN(C)C(=O)Nc1ccc2c(c1)OCO2 | -0.1
13 | CCOC(=O)C1=CC[C@@H](c2ccccc2)[C@@H]1C(=O)c1ccc(OC)cc1 | 0.7
14 | C[C@@H]1CN([C@H](C)CO)C(=O)c2cccc(NC(=O)CCCCCC(=O)Nc3ccccc3N)c2O[C@@H]1CN(C)C(=O)Nc1ccc(C(F)(F)F)cc1 | 0.9
15 | Cc1ccc(S(=O)(=O)Nc2ccc3c(c2)C(=O)N([C@@H](C)CO)C[C@H](C)[C@@H](CN(C)C(=O)c2ccncc2)OCCCC[C@H](C)O3)cc1 | -0.5
16 | C[C@@H]1CCCCO[C@@H](CN(C)S(=O)(=O)c2ccc(F)cc2)[C@H](C)CN([C@@H](C)CO)C(=O)c2cc(NC(=O)CCCN(C)C)ccc2O1 | 0.6
17 | COc1ccc(NC(=O)N(C)C[C@@H]2Oc3c(NC(=O)CCCCCC(=O)Nc4ccccc4N)cccc3C(=O)N([C@H](C)CO)C[C@H]2C)cc1 | 0.7
18 | Cc1cc(C(=O)Nc2cccc3c2O[C@@H](CN(C)Cc2ccccc2)[C@@H](C)CN([C@H](C)CO)C3=O)n(C)n1 | -0.6
19 | C[C@H]1CCCCO[C@@H](CN(C)C(=O)Nc2cccc3ccccc23)[C@@H](C)CN([C@@H](C)CO)C(=O)c2cc(NC(=O)Cc3ccccc3)ccc2O1 | 1.2
20 | C[C@@H]1CN([C@@H](C)CO)C(=O)c2cc(N(C)C)ccc2O[C@H]1CN(C)CC1CCCCC1 | -0.2
21 | C[C@@H]1CN([C@@H](C)CO)C(=O)c2cc(NC(=O)NC3CCCCC3)ccc2O[C@H]1CN(C)Cc1ccccc1 | 0.2
22 | O=C1O[C@H](c2ccccc2)[C@H](c2ccccc2)N2[C@H]1[C@@H](C(=O)NC[C@H](O)c1ccccc1)[C@]1(C(=O)Nc3ccccc31)[C@H]2c1ccc(OCCO)cc1 | 0.4
23 | C[C@H](CO)N1C[C@H](C)[C@@H](CN(C)Cc2ccc(Cl)c(Cl)c2)OCCCC[C@H](C)Oc2ccc(NC(=O)C3CCCCC3)cc2C1=O | -0.4
24 | C[C@@H]1CN([C@@H](C)CO)C(=O)Cc2cc(N(C)C)ccc2O[C@@H]1CN(C)Cc1ccc2c(c1)OCO2 | -0.8
25 | C[C@@H]1CCCCO[C@@H](CN(C)Cc2ccc(Cl)c(Cl)c2)[C@@H](C)CN([C@H](C)CO)C(=O)c2cc(NC(=O)Nc3ccc4c(c3)OCO4)ccc2O1 | 0.1
26 | C[C@@H]1CCCCO[C@@H](CN(C)S(=O)(=O)c2ccc(F)cc2)[C@H](C)CN([C@@H](C)CO)C(=O)c2cc(NC(=O)CCC(F)(F)F)ccc2O1 | 1.6
27 | CNC[C@@H]1OCCCC[C@@H](C)Oc2ccc(NC(=O)Nc3ccc(C(F)(F)F)cc3)cc2C(=O)N([C@@H](C)CO)C[C@@H]1C | -0.9
28 | C[C@@H]1CCCCO[C@@H](CN(C)Cc2ccccc2)[C@@H](C)CN([C@@H](C)CO)C(=O)c2cc(NC(=O)Nc3cccc4ccccc34)ccc2O1 | 0.4
29 | CC(C)NC(=O)Nc1cccc2c1O[C@H](CN(C)S(=O)(=O)c1ccc(Cl)cc1)[C@@H](C)CN([C@H](C)CO)C2=O | 1.2
30 | C[C@@H]1CN([C@@H](C)CO)C(=O)c2cc(NC(=O)c3ccncc3)ccc2O[C@@H](C)CCCCO[C@@H]1CN(C)C(=O)c1ccncc1 | -0.4
31 | C[C@H](CO)N1C[C@H](C)[C@H](CN(C)C)Oc2ncc(-c3cccc(C(F)(F)F)c3)cc2C1=O | 1.3
32 | C[C@@H]1CN([C@H](C)CO)C(=O)c2cc(NC(=O)Nc3ccc(F)cc3)ccc2O[C@@H]1CN(C)C(=O)Nc1ccc(F)cc1 | -0.3
33 | CNC[C@@H]1Oc2ccc(NC(=O)Nc3ccc(C(F)(F)F)cc3)cc2CC(=O)N([C@@H](C)CO)C[C@@H]1C | 0.6
34 | C[C@@H]1CN([C@@H](C)CO)C(=O)CCCn2nncc2CO[C@H]1CN(C)Cc1ccc(O)cc1 | -2.5
35 | Cc1noc(C)c1S(=O)(=O)Nc1ccc2c(c1)C(=O)N([C@H](C)CO)C[C@H](C)[C@H](CN(C)Cc1ccc3c(c1)OCO3)OCCCC[C@H](C)O2 | -0.6
36 | C[C@@H]1CN([C@@H](C)CO)C(=O)c2cccc(NC(=O)CCCCCC(=O)Nc3ccccc3N)c2O[C@@H]1CN(C)C | -1.0
37 | C[C@@H]1CN([C@H](C)CO)C(=O)c2cc(NC(=O)Nc3ccccc3)ccc2O[C@@H](C)CCCCO[C@H]1CN(C)C(=O)NC1CCCCC1 | 0.4
38 | C[C@@H]1CN([C@H](C)CO)C(=O)CCCn2nncc2CO[C@@H]1CN(C)S(=O)(=O)c1ccccc1C#N | 0.8
39 | C[C@H](CO)N1C[C@H](C)[C@@H](CN(C)C(=O)Nc2ccccc2)Oc2c(NS(=O)(=O)c3cn(C)cn3)cccc2C1=O | 0.0
40 | CC(C)NC(=O)Nc1ccc2c(c1)C(=O)N([C@H](C)CO)C[C@H](C)[C@@H](CN(C)S(=O)(=O)c1ccccc1)OCCCC[C@@H](C)O2 | 0.2
41 | C[C@H]1CN([C@@H](C)CO)C(=O)Cc2cc(NC(=O)CCC(F)(F)F)ccc2O[C@@H]1CN(C)C(=O)Nc1ccccc1 | -0.3
42 | C[C@H](CO)N1C[C@H](C)[C@@H](CN(C)C(=O)Nc2ccccc2)Oc2ccc(NC(=O)Nc3ccc(C(F)(F)F)cc3)cc2CC1=O | -0.6
43 | C[C@@H]1CCCCO[C@H](CN(C)S(=O)(=O)c2ccc(F)cc2)[C@H](C)CN([C@@H](C)CO)C(=O)c2cc(NC(=O)NC3CCCCC3)ccc2O1 | -0.4
44 | C[C@@H]1CN([C@@H](C)CO)C(=O)Cc2cc(NS(=O)(=O)c3cccs3)ccc2O[C@H]1CN(C)S(=O)(=O)c1ccc(F)cc1 | -0.3
45 | C[C@@H]1CN([C@H](C)CO)C(=O)Cc2cc(NC(=O)Cc3ccccc3)ccc2O[C@@H]1CN(C)C(=O)Nc1ccc2c(c1)OCO2 | -0.7
46 | C[C@H]1CN([C@@H](C)CO)C(=O)Cc2cc(NS(=O)(=O)c3ccccc3)ccc2O[C@H]1CN(C)C | 0.4
47 | CC(C)NC(=O)Nc1ccc2c(c1)C(=O)N([C@@H](C)CO)C[C@@H](C)[C@@H](CN(C)CC1CCCCC1)OCCCC[C@@H](C)O2 | 1.4
48 | C[C@@H]1CCCCO[C@@H](CN(C)S(=O)(=O)c2ccccc2)[C@H](C)CN([C@@H](C)CO)C(=O)c2cc(NC(=O)NC3CCCCC3)ccc2O1 | -0.3
49 | C[C@H](CO)N1C[C@H](C)[C@@H](CN(C)S(=O)(=O)c2cccs2)Oc2c(NC(=O)c3nc4ccccc4s3)cccc2C1=O | -0.4
50 | C[C@H]1CN([C@@H](C)CO)C(=O)c2cccc(NS(=O)(=O)c3cn(C)cn3)c2O[C@@H]1CN(C)C(=O)NC1CCCCC1 | -1.1
51 | C[C@H]1CN([C@@H](C)CO)C(=O)c2cccc(NC(=O)NC3CCCCC3)c2O[C@H]1CN(C)C(=O)Nc1ccc(C(F)(F)F)cc1 | -1.8
52 | C=C[C@@H](O)[C@H]1CC(c2ccccc2)=NO1 | -0.3
53 | C[C@H]1CCCCO[C@@H](CN(C)Cc2ccccc2)[C@@H](C)CN([C@@H](C)CO)C(=O)c2cc(NC(=O)NC3CCCCC3)ccc2O1 | -2.1
54 | Cc1cc(C(=O)Nc2cccc3c2O[C@H](CN(C)C(=O)Nc2c(C)noc2C)[C@@H](C)CN([C@H](C)CO)C3=O)n(C)n1 | -1.6
55 | COc1ccc(CN(C)C[C@H]2Oc3ccc(N(C)C)cc3CC(=O)N([C@@H](C)CO)C[C@H]2C)cc1 | 0.7
56 | C[C@@H]1CN([C@H](C)CO)C(=O)c2cccc(N(C)C)c2O[C@H]1CN(C)Cc1ccc(Cl)c(Cl)c1 | 0.3

Next structures follow:
item | canonical_smiles | A1 apoptosis 2
57 | Cc1noc(C)c1NC(=O)Nc1ccc2c(c1)CC(=O)N([C@@H](C)CO)C[C@H](C)[C@H](CN(C)Cc1ccc(Oc3ccccc3)cc1)O2 | 0.8
58 | CNC[C@H]1OCCCC[C@@H](C)Oc2ccc(NC(=O)c3ccccc3)cc2C(=O)N([C@@H](C)CO)C[C@H]1C | 0.5
59 | C[C@H](CO)N1C[C@H](C)[C@@H](CN(C)C(=O)Nc2ccccc2)Oc2ccc(NS(=O)(=O)c3cn(C)cn3)cc2CC1=O | -0.8
60 | Cc1ccc(S(=O)(=O)N(C)C[C@@H]2Oc3ccc(NC(=O)C4CC4)cc3C(=O)N([C@H](C)CO)C[C@H]2C)cc1 | 0.1
61 | COc1ccc(S(=O)(=O)Nc2ccc3c(c2)CC(=O)N([C@@H](C)CO)C[C@H](C)[C@@H](CN(C)S(=O)(=O)c2ccc(Cl)cc2)O3)cc1 | -0.2
62 | C[C@H](CO)N1C[C@H](C)[C@H](CN(C)C(=O)Nc2ccc(C(F)(F)F)cc2)Oc2ccc(NS(=O)(=O)c3cn(C)cn3)cc2CC1=O | -0.8
63 | CC(C)NC(=O)N(C)C[C@H]1OCCCC[C@@H](C)Oc2ccc(NC(=O)c3ccccc3)cc2C(=O)N([C@H](C)CO)C[C@H]1C | 0.6
64 | C[C@@H]1CCCCO[C@@H](CN(C)C(=O)C2CCCCC2)[C@H](C)CN([C@@H](C)CO)C(=O)c2cc(NC(=O)Nc3cccc4ccccc34)ccc2O1 | 0.0
65 | CC(C)NC(=O)N(C)C[C@@H]1Oc2c(NC(=O)CCCCCC(=O)Nc3ccccc3N)cccc2C(=O)N([C@@H](C)CO)C[C@H]1C | 0.7
66 | C[C@@H]1CCCCO[C@@H](CN(C)S(=O)(=O)c2ccc(Cl)cc2)[C@H](C)CN([C@H](C)CO)C(=O)c2cc(NS(C)(=O)=O)ccc2O1 | 0.2
67 | C[C@H](CO)N1C[C@H](C)[C@H](CN(C)C(=O)Nc2ccc(F)cc2)Oc2ccc(NC(=O)Nc3cccc4ccccc34)cc2C1=O | 0.0
68 | C[C@@H]1CN([C@H](C)CO)C(=O)c2cc(NS(C)(=O)=O)ccc2O[C@@H]1CN(C)C(=O)Nc1ccc(F)cc1 | -0.3
69 | C[C@H](CO)N1C[C@H](C)[C@H](CN(C)C(=O)NC2CCCCC2)Oc2c(NC(=O)Nc3ccccc3)cccc2C1=O | 0.1
70 | Cc1noc(C)c1NC(=O)Nc1ccc2c(c1)C(=O)N([C@H](C)CO)C[C@H](C)[C@@H](CN(C)C(=O)Nc1ccc(C(F)(F)F)cc1)OCCCC[C@H](C)O2 | 0.6

Reprinted at random: 6 entries already listed.
item | canonical_smiles | A1 apoptosis 2
4 | Cc1ccc(S(=O)(=O)N(C)C[C@H]2Oc3ccc(NS(=O)(=O)c4c(C)noc4C)cc3CC(=O)N([C@H](C)CO)C[C@@H]2C)cc1 | 0.7
12 | C[C@H]1CN([C@@H](C)CO)C(=O)c2cc(NC(=O)Cn3cnnn3)ccc2O[C@@H]1CN(C)C(=O)Nc1ccc2c(c1)OCO2 | -0.1
45 | C[C@@H]1CN([C@H](C)CO)C(=O)Cc2cc(NC(=O)Cc3ccccc3)ccc2O[C@@H]1CN(C)C(=O)Nc1ccc2c(c1)OCO2 | -0.7
58 | CNC[C@H]1OCCCC[C@@H](C)Oc2ccc(NC(=O)c3ccccc3)cc2C(=O)N([C@@H](C)CO)C[C@H]1C | 0.5
62 | C[C@H](CO)N1C[C@H](C)[C@H](CN(C)C(=O)Nc2ccc(C(F)(F)F)cc2)Oc2ccc(NS(=O)(=O)c3cn(C)cn3)cc2CC1=O | -0.8
26 | C[C@@H]1CCCCO[C@@H](CN(C)S(=O)(=O)c2ccc(F)cc2)[C@H](C)CN([C@@H](C)CO)C(=O)c2cc(NC(=O)CCC(F)(F)F)ccc2O1 | 1.6
